Lassa entry inh = inhibitors of Lassa virus binding or cell entry | Lassa virus pseudotype entry inhibition, cell reporter; control for the full effect not named in the record | AID 540256 | Potency, µM (titrated, usually from 37.9 µM), without a hit: at the top dose activity change, negative = inhibition, usual class: inhibitors | actives 1.2% (n = 300,000); active means well fitted inhibition curve with a large enough effect; inconclusive means small, poorly fitted or top-dose-only effect, or effect the other way; inactive means flat fitted curve, though single readings scatter; tested in HEK293 cells; note: % is set by controls: 0 for no effect and ±100 for the full control effect; nearly all actives have a fitted effect of over 50% in size; luciferase read-out
RE007 growth inh = less growth of the S. pombe RE007 Vpr strain; S. pombe RE007 Vpr strain, BacTiter-Glo ATP luminescence, 24 h; control for the full effect not named in the record; Potency, µM (highest dose often 92.2 µM), for the others: at the highest dose activity change, negative = less growth; actives 0.21% (n = 360,000); AID 651644; active = well fitted falling curve with a large enough effect; inconclusive = small, poorly fitted or top-dose-only effect; inactive = no such curve, though single readings can be large or run the other way;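 note: % is set by controls: 0 for no effect and ±100 for the full control effect; nearly all actives have a fitted effect of over 50% in size; the assay follows cell death caused by Vpr and the record does not say whether a fall means rescue or toxicity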
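Fission yeast RE007 carrying one integrated HIV-1 vpr copy, seeded at OD 0.01 in PMG+AL medium with 23 nL pinned compound. Grown 24 h at 30 degrees; viability read by BacTiter-Glo luminescence after 5 min.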
Cruzain Triton = cruzain (T. cruzi) inhibition with detergent | purified cruzain, Z-FR-AMC fluorescence, 0.01% Triton | AID 1478 | actives 0.43% (n = 200,000) | Potency, µM, inactives show max response, negative = inhibition, actives largely listed as inhibitors | P25779;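 note: plate controls were neutral wells for no effect and buffer without enzyme for full effect; nearly all actives have a fitted effect of over 40% in size; top concentration of the series not given in the record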
Target sequence (P25779 123-467 limits assumed): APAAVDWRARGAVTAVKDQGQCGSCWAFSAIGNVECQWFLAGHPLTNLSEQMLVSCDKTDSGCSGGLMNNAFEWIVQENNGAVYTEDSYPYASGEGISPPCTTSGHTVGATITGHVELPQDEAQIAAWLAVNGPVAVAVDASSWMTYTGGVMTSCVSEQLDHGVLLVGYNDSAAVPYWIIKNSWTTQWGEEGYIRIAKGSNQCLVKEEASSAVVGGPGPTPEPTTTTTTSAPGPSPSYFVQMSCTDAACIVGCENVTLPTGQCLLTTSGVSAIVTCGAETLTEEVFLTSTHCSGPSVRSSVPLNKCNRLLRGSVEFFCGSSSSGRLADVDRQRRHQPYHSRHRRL
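Z-FR-AMC hydrolysis (2 uM substrate) by cruzain (1.5 nM) monitored kinetically at ex 360/em 450 nm after 15 min room-temperature compound exposure; 0.01% Triton X-100, pH 5.5, 5 mM DTT.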
Cruzain inh noDet = cruzain (T. cruzi) inhibition without detergent | P25779 | purified cruzain, Z-FR-AMC fluorescence, no detergent | Potency, µM, inactives show max response, negative = inhibition, actives largely listed as inhibitors | actives 2.3% (n = 200,000) | AID 1476;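 note: plate controls were enzyme without inhibitor for no effect and buffer without enzyme for full effect; nearly all actives have a fitted effect of over 40% in size; top concentration of the series not given in the record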
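Purified cruzain at 1.5 nM, pre-incubated 15 min with compound at room temperature in 100 mM sodium acetate pH 5.5, 5 mM DTT, 0.00005% Triton X-100. Reaction started with 2 uM Z-FR-AMC; AMC fluorescence increase over 60 s gives rate.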
SARS PLP yeast = SARS-CoV PLP inhibition in yeast | S. cerevisiae expressing SARS-CoV PLpro, growth rescue; control for the full effect not named in the record | Potency, µM (doses to about 32.9 µM), without a hit: at the top dose activity, positive = growth rescue | actives 0.19% (n = 330,000) | AID 485353; active means well fitted rising curve with a large enough effect; inconclusive means small, poorly fitted or top-dose-only effect; inactive means no such curve, though single readings can be large or run the other way; note: 0% is about no effect; nearly all actives have a fitted effect of over 55% in size; growth read by luminescence after 48 h
2A StopGo = FMDV 2A StopGo reporter, luciferase signal; actives 1.2% (n = 410,000); human cells with a luciferase reporter of 2A StopGo recoding; control for the full effect not named in the record; Potency, µM (titrated, usually from 57.9 µM), for the others: at the highest dose signal change, negative = less light; active = well fitted falling curve with a large enough effect; inconclusive = small, poorly fitted or top-dose-only effect; inactive = no such curve, though single readings can be large or run the other way; tested in HEK293T cells; note: % is set by controls: 0 for no effect and ±100 for the full control effect; nearly all actives have a fitted effect of over 45% in size; luciferase light after 4 h
Marburg entry inh = blocks Marburg virus binding to or entry into cells; Marburg virus pseudotyped entry inhibition, cell reporter; control for the full effect not named in the record; about a third of the inactives were read at about 46 µM; AID 540276; Potency, µM (series often up to 37.8 µM), inactives show top-dose activity change, negative = inhibition, hits mostly inhibitors; actives 1.8% (n = 300,000); active = well fitted inhibition curve with a large enough effect; inconclusive = small, poorly fitted or top-dose-only effect, or effect the other way; inactive = flat fitted curve, though single readings scatter; tested in HEK293 cells; about a fifth of its hits are not listed in these tables; note: % is set by controls: 0 for no effect and ±100 for the full control effect; luciferase read-out
NS1 function inh = inhibitors of influenza NS1 protein function; S. cerevisiae slowed by influenza A NS1, growth recovery by OD600; Potency, µM (top dose mostly 46.1 µM), for the others: at the top dose activity, positive = more growth; actives 0.4% (n = 270,000); AID 2326; active means well fitted rising curve with a large enough effect; inconclusive means small, poorly fitted or top-dose-only effect; inactive means no such curve, though single readings can be large or run the other way; note: nearly all actives have a fitted effect of over 50% in size
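Recovery from NS1-induced slow growth read by OD600 in budding yeast switched to galactose assay medium (pH 6.0, -URA) at 1:100 dilution. Compound 23 nl per well; the matching strain lacking NS1 serves as control.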
* hit, by the source's call; u = inconclusive; x = not tested or not shown; [ ] = dose if it differs, or a comment. Unless noted, calls come from the whole dose curve; as a rule, active = well fitted curve in the direction sought with a large enough effect; inconclusive = small, poorly fitted or top-dose-only effect, or another doubt; inactive = no such curve, though single readings can be large; an effect the other way counts as inactive or inconclusive. Potency is the fitted concentration of half-maximal effect.

Screens in order: NS1 function inh, Lassa entry inh, 2A StopGo, SARS PLP yeast, Cruzain inh noDet, Cruzain Triton, Marburg entry inh, RE007 growth inh
- CCOC(=O)NC(=O)COC(=O)Cc1cc(OC)c(OC)c(OC)c1
  -59%, 3%, -8%, 10%, 2%, 1.1%, 4%, 2%
- Cc1ccc(OC(C)C(=O)Nc2ccccc2C(=O)NCc2cccnc2)cc1C (configuration not stated)
  -13%, u, -11%, 5%, x, x, -15%, -9%
- CN1CCN(C(=S)NC(=O)/C=C/c2cccc3ccccc23)CC1
  4%, 12%, x, -1%, -9%, -0.5%, -8%, 3%
- Cc1ccccc1NC(=O)CN1C(=O)CSc2ccccc21
  5%, -11%[46.1 µM], -6%, -2%, x, x, 2%[46.1 µM], 6%
- Cc1cc(=O)oc2c(C)c(OCC(=O)N3CCN(c4ccc(F)cc4)CC3)ccc12
  -13%, 2%[46.1 µM], -5%, 1%, x, x, u, -1%
- COc1ccc(S(=O)(=O)NCc2ccc3c(c2)OCO3)cc1C
  -2%, 12%, x, -6%, -5%, -1.5%, 5%, 8%
- Cc1cc(C)cc(C(=O)N(NC(=O)Nc2ccc(Cl)cc2)C(C)(C)C)c1
  0%, u, u, 0%, 2%, 4.3%, u, -1%
- CCOC(=O)C1C(=O)OC(C)(C)C1C(C)C(=O)c1ccc(C)cc1C (configuration not stated)
  8%, -12%[46.1 µM], -5%, 1%, x, x, -43%[46.1 µM], -18%
- O=C(Cc1ccccc1)Nc1sc2c(c1C(=O)Nc1ccc(Cl)cc1)CCCC2
  x, 14%[46.1 µM], -22%, x, -9%, -6.7%, x, x
- Cc1cc(NCc2ccccc2)c2ccccc2n1
  u, x, u, -2%, x, x, x, 5%
- Cc1cc(N(CN2CCCC2=O)C(=O)c2ccc(F)cc2)no1
  -16%, u, -3%, 3%, -5%, 4.4%, -10%, 13%[3.69 µM]
- O=c1c(NCc2cccs2)nccn1-c1ccc(F)cc1
  x, 6%[46.1 µM], 38%[activator], x, -25%, -15%, x, x
- Cc1ccc(C)c(S(=O)(=O)N2CCN(C(=O)Nc3ccccc3)CC2)c1
  -21%, x, -1%, -1%, x, x, x, 10%
- CCOC(=O)C1CCN(C(c2cccnc2)c2c(NC(=O)c3ccco3)sc(C)c2C)CC1 (configuration not stated)
  -35%, u, 25µM*, 7%, u, -7.5%, u, 9%
- O=C(O)Cn1nc2c3c(cccc3c1=O)-c1ccccc1-2
  4%, x, -24%, -3%, x, x, x, 10%
- COc1cc(OC)cc(C(=O)N2CCN(C(=O)c3ccc(-c4ccccc4)cc3)CC2)c1
  4%, -12%, u, -1%, x, x, u, 7%
- CCCc1ccc(-c2ccc(C(=O)Oc3ccc(OCC)cc3)cc2)nc1
  x, -16%[46.1 µM], -15%, x, 2%, 0.1%, x, x
- Nc1ccccc1S(=O)(=O)NC1=NCCCCC1
  u, 3%, 1%, 14%, 5%, 0.0%, 15%, -14%
- O=C(O)c1ccc(NS(=O)(=O)c2ccc3c(c2)C(=O)c2ccccc2C3=O)cc1
  6%, -2%[46.1 µM], -1%, -1%, x, x, u, 2%
- CCOc1ccc2nc(N3CCN(C(=O)c4ccc(S(=O)(=O)CC)cc4)CC3)sc2c1
  x, -3%[46.1 µM], -12%, x, 4%, -0.9%, x, x
- CC(=O)Nc1cccc(NC(=O)C2CCN(C(=O)c3ccco3)CC2)c1
  14%, 6%, -10%, -4%, x, x, 1%[46.1 µM], -6%
- CC(C)=CC(=O)Nc1nnc(C(C)C)s1
  -11%, u, 36%[activator], 3%, -4%, 4.2%, u, -5%
- COc1ccccc1N1CCN(c2ccc(NC(=O)c3ccc(C)cc3)cc2C(=O)O)CC1
  x, 13%[46.1 µM], 16%, x, 6%, 4.6%, x, x
- CCC(=O)NC(Nc1nc(C)cs1)(C(=O)OC)C(F)(F)F (configuration not stated)
  6%, 9%, -2%, -7%, 4%, 1.0%, 4%, 17%
- COc1ccc(CNC(=O)CN2C(=O)COc3ccc(S(=O)(=O)Nc4ccccc4)cc32)cc1
  x, -7%[46.1 µM], 21%, x, -22%, -5.0%, x, x
- O=C1NC(c2ccccc2)=NC1(Nc1ccccn1)C(F)(F)F (configuration not stated)
  7%, -2%, -3%, 4%, -8%, 2.4%, -20%, 6%
- CCN(CC#CCC(O)(c1ccccc1)c1ccccc1)C(C)C
  -6%, u, -19%, -17%, 7%, -0.9%, u, 3%
- Cc1c(-c2ccco2)[n+](=O)c2c(n1[O-])CCCCC2
  -2%, 4%, 0%, 4%, -6%, 4.6%, 8%, -4%
- CN(C)c1ccc(S(=O)(=O)N2CCCCC2)cc1NC(=O)CN1C(=O)NC2(CCCC2)C1=O
  x, -20%, -13%, x, x, x, -6%[46.1 µM], 15%
- CCC(=O)Nc1nnc(SCCN2CCOCC2)s1
  3%, -7%, -2%, -9%, u, 0.0%, 17%, -2%

Results in NS1 function inh and SARS PLP yeast, for some of the entries so far:
Compound	NS1 function inh	SARS PLP yeast
O=C1NC(c2ccccc2)=NC1(Nc1ccccn1)C(F)(F)F (configuration not stated)	7%	4%
CCN(CC#CCC(O)(c1ccccc1)c1ccccc1)C(C)C	-6%	-17%

(further entries)
Screens in order: NS1 function inh, Lassa entry inh, 2A StopGo, SARS PLP yeast, Cruzain inh noDet, Cruzain Triton, Marburg entry inh, RE007 growth inh
- Cc1ccc(-n2c3c(c(=O)[nH]c2=O)C(NC(=O)c2ccccc2C)(C(F)(F)F)C(=O)N3)cc1 (configuration not stated)
  x, 14%[46.1 µM], -17%, x, 9%, -2.9%, -16%[46.1 µM], x
- CCOc1ccc(C2c3c(oc4ccccc4c3=O)C(=O)N2Cc2ccc3c(c2)OCO3)cc1 (configuration not stated)
  x, -6%[46.1 µM], 77%[activator], x, -3%, -1.0%, u, x
- CC1CCCCC1NC(=O)C1CC=CCC1C(=O)O (configuration not stated)
  3%, -2%, 0%, -5%, -2%, 1.3%, -4%, -17%
- COc1cc(C)c(-c2[nH]ncc2-c2csc(C)n2)c(O)c1
  8%, 0%, u, -11%, 3%, -3.8%, u, 8%
- Cc1ccccc1COc1ccc(/C=N/NC(=O)c2nnn(-c3nonc3N)c2CN2CCC(C)CC2)cc1
  -22%, x, -7%, 14%, x, x, x, -10%
- Cc1ccc(C(C)C)c(OCC(=O)Nc2ccc(O)c(-c3nc4cc(Cl)ccc4o3)c2)c1
  x, -5%[46.1 µM], 4%, x, 7%, -0.6%, x, x
- CCC(=O)N1CCCc2cc(S(=O)(=O)N3CCCc4ccccc43)ccc21
  -43%, -5%, u, -3%, 15%, -1.3%, -16%, -4%
- CCCCN(C)C(=O)c1nc2ccccn2c1CN1CCN(c2ccccn2)CC1
  1%, -10%, -10%, 0%, x, x, -9%[46.1 µM], 6%
- CN1C(C(=O)NCCc2cccs2)CC2Cn3c(nc4cc(Cl)c(Cl)cc43)C21 (configuration not stated)
  -1%, x, -21%, 2%, x, x, x, 0%
- COc1ccc(CCn2cnc(=O)c(C#N)c2C)cc1OC
  x, 9%, -10%, -4%, x, x, 27%[46.1 µM], -11%
- CCCOc1ccccc1NC(=O)CC1Nc2ccccc2NC1=O (configuration not stated)
  -33%, -1%, -25%, 4%, 13µM*, -4.0%, 0%, 5%
- COc1ccc(/C=N/NC(=O)c2cccc(COCC(F)(F)C(F)F)c2)cc1
  -5%, -15%, -9%, -1%, -25%, -8.1%, -8%, -17%
- Cc1c(NC(=O)COC(=O)c2cccn2C)c(=O)n(-c2ccccc2)n1C
  x, u, -5%, 17%, x, x, u, 28%
- CCOC(=S)SCC(=O)N1CCc2ccccc2C1C1C(=O)CC(C)(C)CC1=O (configuration not stated)
  -7%, x, -18%, -23%, 9%, -0.9%, x, 12%
- O=C(NCC(=O)N(Cc1cccs1)C(C(=O)NC1CCCC1)c1cccnc1)c1ccco1 (configuration not stated)
  -5%, 13%, -3%, 1%, 8%, 2.6%, 1%, 13%
- CCCCc1nn(-c2cc(Cl)ccc2OC)c2c1C(=O)CC(C)(C)C2
  16%, x, -15%, 4%, 1%, -8.3%, x, 7%
- Cc1ccc(OCC(=O)Nc2ccncc2)cc1
  -9%, 4%, -1%, -9%, x, x, 5%, -27%
- CNC(=O)C(=O)N/N=C/c1cccnc1
  15%, 20%, 3%, 1%, x, x, u, -9%
- O=S(=O)(Nc1ccccn1)c1ccc(C(F)(F)F)cc1Cl
  0%, 11%, 42%[activator], -1%, x, x, 8%[46.1 µM], 21%
- Cc1cc(NC(=O)CCCC(=O)N(CC(=O)NCCc2ccccc2)Cc2ccc(F)cc2)no1
  -9%, 6%, 3%, 1%, 20%, -0.9%, -14%, -5%
- Cn1c(O)c(/C=C2\C=Nc3ccccc32)sc1=Nc1ccc(C(=O)O)cc1
  13%, x, -9%, -2%, x, x, x, -9%
- NC(=O)N/N=C/c1c(Sc2nnnn2-c2ccccc2)nc2ccccn2c1=O
  2%, x, u, -1%, x, x, x, 8%
- COc1ccc(OC)c(-n2c(O)c(C=NCc3ccc4c(c3)OCO4)c(=O)[nH]c2=O)c1
  -42%, 17%, 8%, 12%, -1%, 2.0%, -12%, 14%

Whole records, looked up by structure. Screens in order: NS1 function inh | Lassa entry inh | 2A StopGo | SARS PLP yeast | Cruzain inh noDet | Cruzain Triton | Marburg entry inh | RE007 growth inh
CNC(=O)C(=O)N/N=C/c1cccnc1 reads 15% | 20% | 3% | 1% | x | x | u | -9%
CN1C(C(=O)NCCc2cccs2)CC2Cn3c(nc4cc(Cl)c(Cl)cc43)C21 (configuration not stated) reads -1% | x | -21% | 2% | x | x | x | 0%

High-throughput results (PubChem BioAssay)
